RanGTP-Impb inh: disruptors of Ran-importin-beta complex formation – biochemical, FRET, CFP-Ran, YFP-importin-beta, homogeneous, primary screen; cell-free CFP-Ran/YFP-importin-beta FRET ratio; inhibition, % (concentration not given with the values); actives 1.1% (n = 300,000);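 active = most replicates above 15%; inconclusive = exactly half above 15%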;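 also: 0% = DMSO wells and 100% = Ran loaded with GDP instead of GTP; wells of about 40 µL received 100 nL stock; the first replicate is given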
LANA-H2A inh: blocks KSHV LANA binding to histone H2A/H2B. cell-free LANA-H2A/H2B peptide, fluorescence polarization. inhibition, % (no concentration beside the values). actives 0.6% (n = 320,000); in the data active = inhibition mostly above about 10%, no sharp cut-off; inactive = mostly below about 6.7%;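 also: stock transfer was 7.5 nL into about 10 µL; 0% = median of vehicle wells and 100% = median of positive control wells; one replicate is shown; the record names a cut of 25% in any replicate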
B2AR ag: activates human beta-2 adrenergic receptor causing internalization | P07550 | Am2.2-beta2AR cells, FAP receptor internalization, flow cytometry; reference of the scale not given here | response, % (no concentration beside the values) | actives 0.43% (n = 340,000) | AID 504454;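 active = response above a set limit, near 3 SD of response in nonfluorescent compounds, cut at about 42% in these data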;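 also: stock transfer was 100 nL into about 11 µL; a reference agonist was the positive control; negative values mostly stem from fluorescent compounds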
Target sequence (P07550 whole entry, looked up): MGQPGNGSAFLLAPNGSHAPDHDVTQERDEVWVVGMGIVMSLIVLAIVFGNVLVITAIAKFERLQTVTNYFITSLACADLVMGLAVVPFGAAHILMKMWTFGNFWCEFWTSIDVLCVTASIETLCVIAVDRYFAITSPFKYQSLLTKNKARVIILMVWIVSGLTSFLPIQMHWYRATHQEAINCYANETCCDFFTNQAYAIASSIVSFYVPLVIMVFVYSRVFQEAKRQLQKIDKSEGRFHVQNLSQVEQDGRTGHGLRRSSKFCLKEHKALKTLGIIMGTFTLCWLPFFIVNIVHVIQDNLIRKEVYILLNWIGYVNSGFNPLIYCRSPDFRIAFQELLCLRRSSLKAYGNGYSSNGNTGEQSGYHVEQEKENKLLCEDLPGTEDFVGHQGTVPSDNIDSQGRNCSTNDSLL
UCH37 inh: blocks the human deubiquitinase UCH37; Q9Y5K5; purified proteasome/UCH37, Ub-AMC cleavage fluorescence; inhibition, % (no concentration beside the values); actives 0.33% (n = 330,000); AID 588478;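 active = mean of two replicates above 20%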;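 also: 0% = compound-free wells with enzyme and 100% = wells lacking proteasome; stock transfer was 100 nL into about 20 µL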
Target sequence (Q9Y5K5 whole entry, looked up): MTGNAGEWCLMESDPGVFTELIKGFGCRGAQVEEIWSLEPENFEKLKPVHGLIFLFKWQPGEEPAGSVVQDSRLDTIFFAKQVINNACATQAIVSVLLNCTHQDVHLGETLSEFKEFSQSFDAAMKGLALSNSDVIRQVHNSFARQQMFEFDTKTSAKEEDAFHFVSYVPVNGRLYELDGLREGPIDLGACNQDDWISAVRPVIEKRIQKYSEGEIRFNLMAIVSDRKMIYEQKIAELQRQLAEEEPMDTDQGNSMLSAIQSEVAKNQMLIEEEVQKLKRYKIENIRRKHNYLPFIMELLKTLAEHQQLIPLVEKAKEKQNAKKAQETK
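Material: Human UCH37 enzyme supplied as purified proteasome complex | Schedule: 30 min preincubation with enzyme, 25 min cleavage at room temperature | Detection: AMC fluorescence 355/460 nm | Measure: % inhibition of Ub-AMC cleavage fluorescence | Controls: Wells without proteasome as full block, compound-free enzyme plus substrate as uninhibited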
Bfl-1 A1 inh: inhibitors of the anti-apoptotic protein A1, read as caspase activation. caspase activation, % (test concentration not listed). actives 0.066% (n = 330,000). MEF A1-2A-BIM cells, Caspase-Glo 3/7 luminescence, 3 h; percent of clofoctol response, vehicle zero;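 active = over half of replicate activation scores above 10%, or exactly half above 10 with the replicate mean above 10; inconclusive = replicate mean below 10 yet half the replicates above 10; inactive = over half of replicates below 10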;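 also: wells of about 30 µL received 50 nL stock; many hits fall short of the cut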
Calb FLC: C. albicans growth modulation with fluconazole; actives 0.57% (n = 300,000); C. albicans CaCi-2 (fluconazole-resistant clinical isolate) + fluconazole, Alamar Blue growth, 48 h; AID 1979; growth inhibition, % (no concentration beside the values);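 active = most replicates above 75%; inconclusive = exactly half above 75%; inactive = most below 75%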;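 also: all wells also contain fluconazole at 8 µg/ml as a sub-toxic cotreatment; 0% = median of DMSO wells and 100% = median of geldanamycin control wells; wells of about 8 µL received 7.5 nL stock; the first replicate is given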
T cruzi inh: T. cruzi replication inhibition. T. cruzi beta-gal in NIH3T3, luminescence, 90 h. inhibition, % (test concentration not listed). actives 1.4% (n = 300,000). AID 1885;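 active = mean inhibition across valid replicates above about 55%, limit read from the data; inconclusive = mean below that limit but half or more replicates reach it; inactive = mean below it, under half of replicates reach it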;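 also: signal also drops with host cell toxicity which is not excluded here; 0% = plate median of DMSO wells and 100% = zero luminescence signal; higher percent means less beta-gal luminescence so fewer parasites; stock transfer was 50 nL into about 50 µL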
Beta apoptosis: blocks beta cell apoptosis; AID 435005; actives 0.8% (n = 300,000); protection from apoptosis, % (no concentration beside the values); INS-1E cytokine-induced death, ATP luminescence, 48 h; percent of positive-control rescue, neutral wells zero;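 active = all replicates at 75% or more, or half of them and the mean; inconclusive = half reach 75% but not the mean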;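 also: 0% = cytokine-treated negative control wells and 100% = positive control rescue; higher means more ATP so stronger rescue from cytokine killing; wells of about 40 µL received 100 nL stock; the first replicate is given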
Active calls of the source: *; ? = inconclusive; . = not tested or not shown.

SMILES | RanGTP-Impb inh | LANA-H2A inh | B2AR ag | UCH37 inh | Bfl-1 A1 inh | Calb FLC | T cruzi inh | Beta apoptosis
CC1CCCCC1NC(=O)COc1ccccc1C#N (stereo not given) | . | -4.8 | -16 | 0.4 | 0.1 | . | . | -3
Fc1ccc(-n2nnnc2-c2ccccc2Cl)cc1 | -1.2 | 0.8 | -5 | 4.0 | 0.9 | -5 | -2 | -3
Clc1ccc(-c2noc(CSc3nnc(Cc4cccs4)n3-c3ccccc3)n2)cc1 | 0.1 | -2.6 | 5 | 3.8 | 0.8 | 10 | 21 | .
COc1ccc(-c2nc(C#N)c(NCCCn3ccnc3)o2)cc1OC | ? | 3.5 | 7 | -280 | 0.1 | -3 | -2 | 10
CCCCN(CC)CCNC(=O)c1cn(-c2ccc(Cl)cc2)c(=O)c2ccccc12 | 3.9 | 3.5 | 2 | -1.8 | 1.6 | 4 | 68* | 10
COc1ccc(-c2nc(C#N)c(N3CCC(C)CC3)o2)cc1 | -0.1 | -0.5 | -6 | -76 | -0.5 | 4 | 7 | -1
CCc1cccc(C)c1NC(=O)c1cccnc1 | 0.5 | -3.4 | -2 | 1.8 | 0.5 | 4 | -7 | -7
N#CCSc1nnc2c(Cl)cc(Cl)cn12 | 1.1 | 0.0 | -3 | 2.4 | -0.1 | 5 | 4 | 0
CCOC(=O)C1=C(C)N(C)C(=S)NC1c1ccc(Cl)cc1Cl (stereo not given) | -2.4 | -0.1 | 13 | -2.8 | 0.7 | -7 | -9 | .
CCc1cc(SC#N)cc(C)c1NC(=O)CCl | -1.1 | 2.1 | 47* | 9.8 | 1.1 | -4 | 15 | 99*
O=S1(=O)CC(O)C(N(CCO)C(=S)Nc2ccccc2)C1 (stereo not given) | 2.0 | 4.1 | 0 | 2.5 | 0.2 | -8 | -11 | 0
CCOC(=O)c1cnc2c(Cl)cc(Cl)cc2c1NCCOCCO | 1.1 | -0.1 | -3 | -0.6 | -0.1 | 22 | 20 | -3
O=C(COC(=O)c1ccc(OC(F)F)cc1)NCCNC(=O)COC(=O)c1ccc(OC(F)F)cc1 | -0.5 | 7.2 | -3 | 4.0 | 0.9 | -1 | 4 | -1
O=C(NC1CCCCC1)n1c(=O)oc2ccccc21 | -1.5 | 6.4 | -7 | 5.7 | 0.1 | -1 | -7 | -16
Cc1ccc(NN=C2C(=O)OC(C)(C)OC2=O)c(C)c1 | -0.6 | -1.5 | -3 | 13 | 0.2 | -6 | -10 | -2

One compound at a time, as listed above. Order of values: RanGTP-Impb inh, LANA-H2A inh, B2AR ag, UCH37 inh, Bfl-1 A1 inh, Calb FLC, T cruzi inh, Beta apoptosis
Profile of `CCc1cc(SC#N)cc(C)c1NC(=O)CCl` = -1.1, 2.1, 47*, 9.8, 1.1, -4, 15, 99*
Profile of `CCc1cccc(C)c1NC(=O)c1cccnc1` = 0.5, -3.4, -2, 1.8, 0.5, 4, -7, -7
Profile of `COc1ccc(-c2nc(C#N)c(N3CCC(C)CC3)o2)cc1` = -0.1, -0.5, -6, -76, -0.5, 4, 7, -1
Profile of `CC1CCCCC1NC(=O)COc1ccccc1C#N` (stereo not given) = ., -4.8, -16, 0.4, 0.1, ., ., -3
Profile of `O=C(NC1CCCCC1)n1c(=O)oc2ccccc21` = -1.5, 6.4, -7, 5.7, 0.1, -1, -7, -16

(list continues)
SMILES | RanGTP-Impb inh | LANA-H2A inh | B2AR ag | UCH37 inh | Bfl-1 A1 inh | Calb FLC | T cruzi inh | Beta apoptosis
COc1ccc(-c2csc(Cc3nnc4n3CCCCC4)n2)cc1OC | -3.5 | -0.9 | 3 | 2.8 | 0.5 | -2 | 30 | 3
O=C(NCCCN1CCN(c2ccccc2F)CC1)Nc1ccc(F)cc1 | 0.5 | -3.7 | -5 | 2.1 | 0.9 | -15 | 4 | 0
Cc1ccc(NC(=O)Nc2cccnc2)cc1 | 6.2 | 2.5 | 3 | 0.4 | -1.8 | 1 | 9 | -5
COc1ccc(-c2noc(C3CCCN(C(=O)c4ccccc4C)C3)n2)cc1 (stereo not given) | 1.8 | 0.5 | 6 | . | 0.2 | -3 | 4 | 1
COc1ccc(-c2cnc3nc[nH]c(=O)c3n2)cc1 | 3.4 | -3.1 | -8 | -37 | 0.3 | -7 | 1 | 3
CCCN1CCN(CCCNC(=O)c2ccc(CS(=O)c3ccc(OC)cc3)o2)CC1 (stereo not given) | 3.4 | -4.0 | 3 | 4.6 | 0.0 | 27 | 1 | 3
CCOC(=O)CC(=O)CSc1ccc2nnc(-c3ccccc3)n2n1 | 1.5 | -3.3 | 5 | -19 | -0.3 | 22 | -1 | 6
CC(C)(C)OC(=O)N1CCC[C@H]1c1nnc(SCc2ccccc2Cl)o1 | 3.6 | -7.9 | -8 | 4.6 | 0.6 | -1 | 17 | -10
COc1ccc(CC(=O)OCC(=O)NCc2ccco2)cc1OC | 1.0 | -1.2 | -7 | -0.4 | 1.3 | -2 | 4 | -2
COC(=O)C1=Cc2cc(OC)cc([N+](=O)[O-])c2OC1N1CCOCC1 (stereo not given) | 2.6 | 2.7 | 2 | 1.9 | 0.5 | 5 | 33 | -7
Cc1ccc(-c2nc(N)sc2-c2ccccc2)cc1C | -2.4 | 1.7 | 4 | -0.5 | -1.4 | 10 | 18 | .
O=C1OC(Nc2ncccn2)c2ccccc21 (stereo not given) | 2.2 | 6.1 | 3 | 3.3 | 1.7 | -9 | 0 | -1
Cc1ccccc1C(=O)NC(CC(C)C)C(=O)Nc1cccc(S(=O)(=O)N(C)C)c1 (stereo not given) | 1.3 | 1.0 | -3 | 0.5 | 0.8 | -8 | -5 | 1
OC(COCc1ccc2c(c1)OCO2)CN1CCC(Cc2ccccc2)CC1 (stereo not given) | 0.5 | -3.3 | 6 | 2.9 | 0.5 | -32 | 35 | -3
Cc1ccc(C)c(N2CCN(C(=O)c3cc4c(C)nc5ccccc5c4o3)CC2)c1 | 0.5 | -4.3 | 8 | 4.3 | -2.3 | -7 | 29 | -5
Cc1ccc(C2C3=C(CC(C)(C)CC3=O)NC3=C2C(=O)CC(C)(C)C3)o1 | 3.9 | 9.1 | -3 | -1.3 | 0.5 | -6 | 4 | -3
Cc1nn(Cc2ccccc2)c(Cl)c1C(=O)OCc1nnc(-c2ccccc2)o1 | 7.1 | -1.6 | -2 | 5.2 | -0.3 | 3 | 15 | -2
O=S(=O)(c1ccc(Br)c2nsnc12)N1CCOCC1 | -5.7 | -5.2 | 1 | -7.1 | 1.6 | 4 | 9 | -1
COc1cc(C(=O)N2CCN(c3cccc(C)c3C)CC2)ccc1OCC(=O)N1CCOCC1 | . | -6.7 | -3 | 1.2 | 1.1 | . | . | -6
O=c1[nH]n(-c2ncnc3c2cnn3-c2ccccc2)c(=O)c2ccccc12 | 2.7 | -1.0 | 3 | 0.1 | -3.3 | 2 | 8 | -10
Cc1cc(C)c(NS(=O)(=O)c2ccc(NC(=O)c3cccs3)cc2)c(C)c1 | 4.9 | -1.3 | -17 | 4.1 | 1.0 | -5 | 41 | -5
CCOC(=O)C1CCN(C(=O)c2cccc(S(=O)(=O)N(CC)c3ccccc3)c2)CC1 | . | 0.8 | -1 | 0.0 | -0.3 | . | . | 2
CCc1ccccc1NC(=O)Cc1ccc(-n2cccc2)cc1 | -0.1 | -5.7 | -13 | 0.4 | 0.0 | 9 | -2 | -2
COc1ccc(/C=C(\C#N)C(=O)NCCc2ccccc2)cc1OCc1ccccc1 | -2.4 | 4.5 | -4 | -9.4 | 0.5 | 6 | 9 | -3
CC(=O)Oc1ccc(N(C(C)=O)S(=O)(=O)c2ccc(C)cc2)c2ccccc12 | 2.5 | -6.4 | 16 | -0.1 | 0.4 | 1 | -2 | 69
Cn1nc(C(=O)Nc2nnc(C3CC3)s2)c2ccccc2c1=O | ? | -0.1 | -17 | 2.3 | ? | -7 | 0 | -1
CCSc1nc2nn(-c3ccccc3)c(=O)c-2c2n1CCCCC2 | 5.9 | 1.6 | 5 | 5.2 | -0.2 | 3 | 11 | -2
OCC[C@@H]1C[C@H](O)[C@@H](O)[C@@]2(CCc3ccccc3O2)O1 | ? | -1.5 | 5 | 4.4 | 1.0 | 0 | -16 | -7
Cc1cc(C)n2cc(CSCC(=O)O)nc2n1 | -2.1 | -0.4 | 1 | -213 | 0.8 | 1 | -26 | -6
CC(C)Cc1nnc(NC(=O)CCC(=O)NCc2ccccc2Cl)s1 | 1.1 | -4.8 | 1 | 2.3 | 1.1 | -6 | -15 | -5
O=C(CN1C2CCC1CC(NC(=O)C1CC1)C2)NCc1ccccc1 (stereo not given) | -5.2 | -0.4 | 4 | 1.6 | 1.4 | 45 | 19 | 2
CC(C)[C@H](NS(=O)(=O)c1ccccc1F)C(=O)NC1CCCCC1 | . | -0.6 | -2 | -0.6 | -1.2 | . | . | -3
CCN(CC)C(=O)CSc1nc(O)c(Cc2ccccc2)c(=O)n1-c1ccc(C)cc1 | 2.0 | -4.3 | 3 | 3.4 | 0.2 | -3 | 0 | -1
COc1ccc(OC)c(NC(=O)c2cnc3n(c2=O)CCS3)c1 | -2.3 | -2.0 | -13 | 6.8 | 0.3 | 1 | -1 | 5
COc1ccc(C(=O)NCc2cccs2)cc1S(=O)(=O)N1CCOCC1 | -2.0 | 3.3 | 0 | 0.0 | 0.1 | -9 | -7 | .
O=S(=O)(Cc1cc(Sc2ccc(Cl)cc2)nc(-c2ccccc2)n1)c1ccccc1 | -1.3 | -1.1 | -7 | 1.6 | 1.0 | -10 | 55* | 6
COc1ccc(N(C(=O)CCl)C(C)(C(=O)Nc2c(C)cccc2C)c2ccccn2)cc1 (stereo not given) | -55 | -5.0 | 0 | 3.1 | 0.1 | -2 | -2 | -5
NC(=O)C1CCN(S(=O)(=O)c2ccc3c(c2)OCCO3)CC1 | 3.6 | -3.0 | 0 | 2.6 | 0.7 | -8 | -10 | -6
O=C(O)CCc1ccc(-c2ccc(Br)cc2)n1-c1ccc(O)cc1 | -4.7 | -1.4 | 1 | -0.1 | -0.3 | 14 | 4 | -1
COc1cc(C2C(C(=O)Nc3ccccc3OC)=C(C)Nc3ncnn32)ccc1O (stereo not given) | -3.3 | -0.9 | -17 | 3.7 | 0.0 | -6 | 0 | 0
CCCSc1ccc([C@H]2N[C@@](CC(C)C)(C(=O)OC)[C@H]3C(=O)N(C)C(=O)[C@@H]23)cc1 | 1.6 | 2.8 | 0 | -5.4 | -0.5 | -12 | 5 | .
Cc1ccc(-c2nc3ccccc3[nH]2)cc1NC(=S)NC(=O)c1ccccc1Br | 2.0 | -2.8 | 2 | -0.2 | -0.4 | 2 | 11 | 14
O=C(NC1CCCC1)C(c1ccc(Cl)cc1)N1CCc2ccccc21 (stereo not given) | 2.3 | 1.9 | 8 | 4.2 | 0.9 | -15 | 43 | -1
Cc1ccccc1NC(=O)CSc1nc2ccc(Nc3nc(N4CCOCC4)nc(N4CCOCC4)n3)cc2s1 | -6.5 | . | 19 | 3.5 | . | 5 | 39 | .
